# Bioassay records as filed in PubChem BioAssay.
# Vaccinia Venus: vaccinia inhibition (Venus reporter). Potency, µM (titrated, usually from 36.5 µM), for inactives: at the top dose activity change, negative = inhibition, most hits filed as inhibitors. Vaccinia virus Venus reporter expression, fluorescence. 330,000 compounds, 0.46% hits; active means well fitted inhibition curve with a large enough effect; inconclusive means small, poorly fitted or top-dose-only effect; inactive means no such curve, though single readings can be large or run the other way; tested in A549 cells; also: nearly all actives have a fitted effect of over 30% in size; inactives centre near -10
# Vaccinia mCherry: inhibitors of vaccinia virus infection (mCherry reporter signal) | Vaccinia virus mCherry reporter infection, fluorescence; about a quarter of the inactives have no number | Potency, µM (doses to about 36.5 µM), without a hit: at the top dose activity change, negative = inhibition, actives largely listed as inhibitors | 310,000 compounds, 0.63% hits; active = well fitted inhibition curve with a large enough effect; inconclusive = small, poorly fitted or top-dose-only effect; inactive = no such curve, though single readings can be large or run the other way; tested in A549 cells; also: nearly all actives have a fitted effect of over 35% in size; inactives centre near -10
# The depositor's hits bear a star; i = inactive; ? = inconclusive; / = not tested or not shown; & = joins results of further samples; [ ] = dose if it differs, or a comment. % is scaled to controls: 0 for no effect and ±100 for the full control effect; potency is read from the fitted curve at half-maximal effect.
# The opening five compounds as a preview:
nr	mol	Vaccinia Venus	Vaccinia mCherry
1	CN[C@H]1C[C@H]2c3cc(N4CCN(C)CC4)ccc3CCN2C(=O)[C@H]1[C@H](C)O	-11%	i
2	Cc1cc(OCC(=O)N(C)c2c(N)n(Cc3ccccc3)c(=O)[nH]c2=O)c(C(C)C)cc1Cl	4%	i
3	CCOC(=O)Cc1csc(NC(=O)c2ccc([N+](=O)[O-])cc2[N+](=O)[O-])n1	?	-25%
4	COc1cccc(C(=O)NCCNC(=O)c2cnccn2)c1	1%	i
5	COc1ccc(N2CCN(CC(=O)NC(C)c3ccccc3)CC2)cc1 (centres undefined)	-19%	-12%

# The whole of this part, from the first entry:
nr	mol	Vaccinia Venus	Vaccinia mCherry
1	CN[C@H]1C[C@H]2c3cc(N4CCN(C)CC4)ccc3CCN2C(=O)[C@H]1[C@H](C)O	-11%	i
2	Cc1cc(OCC(=O)N(C)c2c(N)n(Cc3ccccc3)c(=O)[nH]c2=O)c(C(C)C)cc1Cl	4%	i
3	CCOC(=O)Cc1csc(NC(=O)c2ccc([N+](=O)[O-])cc2[N+](=O)[O-])n1	?	-25%
4	COc1cccc(C(=O)NCCNC(=O)c2cnccn2)c1	1%	i
5	COc1ccc(N2CCN(CC(=O)NC(C)c3ccccc3)CC2)cc1 (centres undefined)	-19%	-12%
6	Cc1cc(C)c(S(=O)(=O)n2c([N+](=O)[O-])cnc2C)cc1C	-5%	-14%
7	COC(=O)c1ccc(NC(=O)CCN2CCN(c3ccccc3)CC2)cc1	-17%	i
8	CC1=C(C(=O)OC2CCCCC2)C(c2ccccc2)NC(=O)N1 (centres undefined)	-9%	i
9	CCOC(=O)c1c(NC(=O)C2c3ccccc3Oc3ccccc32)sc(C(=O)N(CC)CC)c1C	-28%	/
10	Cc1cc(C)cc(-n2c(SCC(=O)N3CCC(C)CC3)nc3c([nH]c4ccccc43)c2=O)c1	-6%	-8%
11	CCNC(=O)COC(=O)c1csc2c1CCCC2	-17%	-13%
12	CC(C)CCn1c(=O)c2cccnc2n(CC(=O)Nc2ccccc2F)c1=O	-3%	i
13	Nc1nc(SCC(=O)c2ccc(F)cc2)n[nH]1	-2%	i
14	Cc1cccc(N(C)C(=O)C2CCC(CNS(=O)(=O)c3cccc4nsnc34)CC2)c1 (centres undefined)	-10%	-12%
15	C=CCSc1nnc(NC(=O)CSc2nc(CCC)cc(=O)[nH]2)s1	-20%	-26%
16	Cn1c(=O)n(-c2cccc(Cl)c2)c(=O)c2sc3ccccc3c21	-5%	7%
17	C/C(CC(=O)NC(C)(C)C)=N\NC(N)=S	?	10µM*
18	Cc1nn(-c2ccccc2Cl)c2sc(C(=O)Nc3nnc(C4CC4)s3)cc12	-5%	?
19	CC(=O)c1ccc(N2CCN(c3ncccn3)CC2)cc1	-2%	35%[activator]
20	COC(=O)C(C)N(C(=O)c1ccc(Cl)cc1)c1c(C)cccc1C (centres undefined)	-9%	-14%

# The final 2 compounds of the section before come first, to join the parts.
nr	mol	Vaccinia Venus	Vaccinia mCherry
19	CC(=O)c1ccc(N2CCN(c3ncccn3)CC2)cc1	-2%	35%[activator]
20	COC(=O)C(C)N(C(=O)c1ccc(Cl)cc1)c1c(C)cccc1C (centres undefined)	-9%	-14%
21	COC(=O)c1ccc(NC(=O)c2nc(SCc3ccccc3F)ncc2Cl)cc1	-4%	36%[activator]
22	COc1cc(Cc2cnc(N)nc2N)cc(OC)c1OC	?	-13%&-8%&4%&-11%
23	O=C(c1cnccn1)N1CCCC(N2CCN(c3cccc(Cl)c3)CC2)C1 (centres undefined)	-6%	-14%
24	COCCCNC(=O)c1ccc(CNS(=O)(=O)c2ccc(NC(C)=O)cc2)cc1	-6%	i
25	Cc1c2cnn(CC(=O)NCc3ccc(F)cc3)c(=O)c2c(C)n1Cc1ccccc1F	-13%	-10%
26	COc1cc(OC)cc(C(=O)Nc2ccc3nc(N4CCCCC4)cc(C)c3c2)c1	-13%	-10%
27	COCCn1c(=O)c2c(nc3n2CCCN3CCc2ccccc2)n(C)c1=O	-11%	-10%
28	COc1cc2c(C(=O)N(C)c3cc(Cl)ccc3OC)cn(C)c(=O)c2cc1OC	-5%	-13%
29	c1ccc(-c2onc3cc4c(cc23)OCCO4)cc1	-25%	/
30	O=C(CCCN1C(=O)/C(=C\c2cccs2)SC1=S)Nc1ccccn1	12%	i
31	CCOC(=O)COc1c(OC)cc(Cl)cc1C1Nc2ccccc2C(=O)N1c1ccccc1 (centres undefined)	-3%	-3%
32	COC(=O)c1ccccc1N(Cc1ccccc1)S(C)(=O)=O	-14%	/
33	Cc1c(Nc2nc3ccccc3n3c(C)nnc23)cccc1C(=O)O	-5%	-2%
34	Cc1ccc(NC(=O)CN2C(=O)C(c3ccccc3)=NC23CCCCC3)cc1C	-19%	-19%
35	O=C(Nc1ccccc1)c1cn2ccccc2n1	-12%[7.34 µM]	i[7.34 µM]
36	Cc1ccc(C)c(NC(=S)NC(NC(=O)OCc2ccccc2)C(Cl)(Cl)Cl)c1 (centres undefined)	-27%	?
37	O=C(NCCN1CCOCC1)c1ccc2c(c1)N(Cc1ccc(Cl)cc1)C(=O)CS2	5%	16%
38	Cc1c(C(=O)N2CCCCCC2)c(S(=O)(=O)Nc2cccc(F)c2)c(C)n1C	7%[7.34 µM]	1%[7.34 µM]
39	CC(=O)Oc1ccc(C(=O)Nc2cccc3c2CCCC3)cc1	-10%	-11%
40	C/C(=N\NC(N)=S)c1ccc2c(c1)OCCO2	?	?
41	CCCC1=C(C(=O)OCC)C(c2cccnc2)n2nc(C)nc2N1 (centres undefined)	-6%	-19%
42	COc1cccc(/C=N/Nc2nc(N3CCCC3)nc(N3CCCC3)n2)c1O	-26%	-14%
43	O=C(CSc1nc(=O)n(CCN2CCOCC2)c2c1CCCC2)Nc1ccc([N+](=O)[O-])cc1	-19%	?
44	Nc1c(S(=O)(=O)c2cccs2)c2nc3ccccc3nc2n1Cc1ccc2c(c1)OCO2	-21%	?
45	Cc1ccc(S(=O)(=O)N2CCCNCC2)cc1	-4%	17%
46	CCN(c1ccc2c(c1)OCO2)S(=O)(=O)c1cc2c(cc1Br)CCN2C(=O)C1CC1	-12%	-19%
47	Cc1ccc(/C=N/n2c(C3CCCCC3)n[nH]c2=S)o1	-9%	-9%
48	C[C@@H]1CCC(=O)N(CC[C@H](Sc2ccccc2)c2ccccc2)CC1	?	-2%
49	CC1=C(C)[N+](=O)C2CCCCC2N1[O-] (centres undefined)	-9%	i
50	CCC/C(=N/NC(=O)c1ccc2c(c1)OCO2)c1cccs1	-3%	-6%
51	COc1cc(CN2CCc3nc(N4CCN(c5ncccn5)CC4)ncc3C2)cc(OC)c1OC	?	-25%
52	CC(=O)Nc1ccc(S(=O)(=O)N2CCN(S(=O)(=O)c3cccs3)CC2)cc1	-1%	-14%
53	Cc1ccc(CCNC(=O)CS(=O)Cc2nc(-c3ccccc3C)oc2C)cc1 (centres undefined)	-8%	-7%
54	O=C(OCC(=O)N1CCOCC1)c1ccc(Br)cc1	-18%	8%
55	O=C(Nc1ccc(NC(=O)c2sc3ccccc3c2Cl)cc1)c1ccco1	-7%	-18%
56	COc1cc(C)ccc1OCc1cc(C(=O)NCCN2CCOCC2)no1	-15%	-3%
57	C[C@@H]1C[C@H]2[C@@H]3CCC4=CC(=O)C=C[C@]4(C)[C@@]3(F)[C@@H](O)C[C@]2(C)[C@H]1C(=O)CO	-13%	i
58	CCCNC(=O)c1ccc(Cl)cc1Cl	-4%	-7%
59	CCN(Cc1ccncc1)C(=S)NCc1ccccc1	-5%	-8%
60	COc1ccc(NC(=O)CCCOc2cc(=O)n(C)c3ccccc23)c(OC)c1	-7%	0%
61	Cc1nnc(SCc2ccc(Cl)cc2)nc1/C=C/N(C)C	-17%	i
62	COc1ccccc1-n1ccn(CC(=O)Nc2ccc(C)cc2Cl)c(=O)c1=O	-7%	-7%
63	Cc1cccc2c1N(C)C(=O)C2=O	2%	11%
64	S=C(Nc1cccc(Cl)c1)Nc1ccc2cn[nH]c2c1	-8%	-4%
65	CCCCNC(=O)Nc1nnc(C(C)(C)C)s1	-13%	0%
66	CCCCNC(=O)C[C@@H]1C[C@@]2(C(=O)OC)CC(C)(C)CC=C2N(CCc2ccc(OC)c(OC)c2)C1=O	-4%	1%
67	O=C(Nc1ccc(Cl)c(Cl)c1)Oc1ccc(NC(=O)c2ccco2)cc1	-18%	-2%
68	COc1ccccc1NC(=O)CSc1nnc(NC(=O)C2CCC2)s1	-7%	-14%
69	CC1(C(=O)Nc2ccc3c(c2)OCCO3)CN(S(C)(=O)=O)CC(=O)N1Cc1cccc(C(F)(F)F)c1 (centres undefined)	-8%	-7%
70	CCOC(=O)N1CCN(C(=O)CCN2C(=O)/C(=C\c3ccccc3OC)SC2=S)CC1	-16%	i
71	Clc1ccc(CNc2ccc3nnc(-c4ccccc4)n3n2)cc1	-11%	-25%
72	CC(=NCCN1CCCCC1)c1c(O)n(Cc2ccccc2)c(=O)[nH]c1=O	-7%	i
73	CCOc1ccccc1N1CCN(CC(O)COC2CCCc3ccccc32)CC1 (centres undefined)	-2%	?
74	FC(F)(F)c1nc(NCc2cccnc2)c2ccccc2n1	-13%	-14%
75	CCNc1cc2n(c(=O)n1)CCc1cc(OC)c(OC)cc1-2	-11%	-15%
76	Cc1cccc(-c2n[nH]c(=S)n2/N=C/c2ccc(C)s2)c1	-19%	-13%
77	Cc1cccc(C)c1NC(=O)C(c1cc2ccccc2o1)N1CCN(C)CC1 (centres undefined)	-24%	-8%
78	Cn1c(CNC(=O)c2ccco2)nnc1SCC(=O)N1CCN(c2ccccc2)CC1	6%	20%
79	O=C(NCc1cccc(Cl)c1)c1cc2c(s1)-c1ccccc1SC2	-22%	-16%
80	CC(=O)C1=C(C)NC(=O)NC1c1cc(Br)ccc1OCC(N)=O (centres undefined)	-10%	/

# Continuation.
nr	mol	Vaccinia Venus	Vaccinia mCherry
81	O=C(COC(=O)Cn1cc(C(F)(F)F)ccc1=O)Nc1ccc(Br)cc1F	-15%	-7%
82	COc1ccc2nc(N3CCCC(O)C3)c(C#N)cc2c1 (centres undefined)	3%	-12%
83	Cc1cccc(NC(=S)NC2CCN(Cc3ccccc3)CC2)c1C	-19%	i
84	CCc1nn(CC(=O)Nc2c(C)cc(C)cc2C)c(=O)c2cc3sccc3n12	-6%	-13%
85	Cc1cccc(N2CC(O)(c3cccs3)[N+]3=C2CCCCC3)c1 (centres undefined)	-9%	-12%
86	Cc1cccc(OC(=O)CSc2nnc(-c3cccs3)o2)c1C	-6%	-4%
87	CCCNC(=O)C1(C)CCN(C(=O)c2ccc3snnc3c2)C1 (centres undefined)	1%	9%
88	CCCCCC(=O)NCc1c(C(F)(F)F)nn(C)c1N1CCOCC1	6%	1%
89	CCc1nnc(NC(=O)C2CCC(CNc3c(N4CCCCC4)c(=O)c3=O)CC2)s1 (centres undefined)	-17%	-14%
90	Cc1ccc(SCC(=O)Nc2ccc3oc(-c4ccccc4F)nc3c2)cc1	-3%	2%
91	CCOc1ccc(NC(=O)CN2C(=O)/C(=C3\SC(=S)N(C4CCS(=O)(=O)C4)C3=O)c3ccccc32)cc1 (centres undefined)	-14%	i
92	NC(=O)[C@H]1CC2(CC(c3cccc(NC(=O)[C@H]4CCC(=O)N4)c3)=NO2)CN1C(=O)c1ccccc1C(=O)c1ccccc1 (some centres undefined)	2%	i
93	CC(=O)NCCC(=O)Nc1cc(S(=O)(=O)N2CCOCC2)ccc1N1CCOCC1	-3%	-4%
94	CC(C)c1ccc(Cc2cnc(NC(=O)c3ccc4c(c3)CC(c3ccccc3)OC4=O)s2)cc1 (centres undefined)	?	?
95	CCn1ncc(Br)c1C(=O)Nc1ccc(C(=O)OC(C)C)cc1	-13%	-16%
96	COc1ccc(N2CCN(C3CC(=O)N(C)C3=O)CC2)cc1 (centres undefined)	0%	-17%[1.46 µM]
97	Cc1cc(C)cc(NC(=O)CCN2CC(C)OC(C)C2)c1 (centres undefined)	-4%	-17%
98	CC1=Nc2ccc3ccccc3c2C1(C)C	-4%	i
99	CC(NC(=O)Nc1ccc([N+](=O)[O-])cc1)C(c1ccccc1)N1CCOCC1 (centres undefined)	-10%	-12%
100	Cc1ccc(CNc2ccc(N3CCOCC3)c(Cl)c2)cc1	-15%	i
101	CCOC(=O)C1CCN(C(=O)c2cc3ccccc3oc2=O)CC1	-13%	-5%
102	Cc1ccc(CN2C(=O)c3ccccc3NC2c2cc(Br)ccc2O)cc1 (centres undefined)	-15%	?
103	O=C(Nc1c(Br)cc2c(c1Br)Cc1ccccc1-2)C(F)(F)F	-12%	-10%
104	CCOC(=O)c1ccc(NC(=O)NC2CC3CCC(C2)N3Cc2nnnn2Cc2ccco2)cc1 (centres undefined)	-21%	/
105	COc1cccc(CC(=O)OCC(=O)NCC(=O)Nc2cccc(C)c2C)c1	-10%	i
106	CCN(CC)C(=O)Cn1cc(SCC(=O)NC)c2ccccc21	5%	3%
107	CN1CCN(c2ncnc3scc(-c4ccccc4Cl)c23)CC1	-8%	?
108	CCC1CN(C(=O)N2CCC(C(=O)NCCC3=CCCCC3)CC2)c2ccccc2O1 (centres undefined)	-7%	-1%
109	COc1ccc(CCNc2oc(Cc3cccc4ccccc34)nc2C#N)cc1OC	?	/
110	COc1ccccc1-c1nnc(NC(=O)c2ccc(S(=O)(=O)N(C)Cc3ccccc3)cc2)o1	-28%	?
111	Cc1ccc(O)c(-c2cc(C(F)(F)C(F)F)nc(-c3ccccc3)n2)c1	-16%	/
112	C=CCC1(CC=C)CCCN1C(=O)CC1C(=O)NCCN1Cc1cc(OC)cc(OC)c1 (centres undefined)	-3%	-22%
